KCNQ2 inh – KCNQ2 channel blockers in CHO-K1 cells – cell-based, FluxOR thallium flux, B-score, primary screen (AID 2156); O88943; 20 min; active compounds read low; only compounds with negative scores are shown here; some inactives read as strong as hits; B-score at 10 µM; 310,000 compounds, 1.1% hits;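 active means fluorescence ratio B-score at most minus 3 library SDs, with starting brightness B-score within 2 library SDs, cut at about -5.5 in these data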
Target sequence (O88943 whole entry, looked up): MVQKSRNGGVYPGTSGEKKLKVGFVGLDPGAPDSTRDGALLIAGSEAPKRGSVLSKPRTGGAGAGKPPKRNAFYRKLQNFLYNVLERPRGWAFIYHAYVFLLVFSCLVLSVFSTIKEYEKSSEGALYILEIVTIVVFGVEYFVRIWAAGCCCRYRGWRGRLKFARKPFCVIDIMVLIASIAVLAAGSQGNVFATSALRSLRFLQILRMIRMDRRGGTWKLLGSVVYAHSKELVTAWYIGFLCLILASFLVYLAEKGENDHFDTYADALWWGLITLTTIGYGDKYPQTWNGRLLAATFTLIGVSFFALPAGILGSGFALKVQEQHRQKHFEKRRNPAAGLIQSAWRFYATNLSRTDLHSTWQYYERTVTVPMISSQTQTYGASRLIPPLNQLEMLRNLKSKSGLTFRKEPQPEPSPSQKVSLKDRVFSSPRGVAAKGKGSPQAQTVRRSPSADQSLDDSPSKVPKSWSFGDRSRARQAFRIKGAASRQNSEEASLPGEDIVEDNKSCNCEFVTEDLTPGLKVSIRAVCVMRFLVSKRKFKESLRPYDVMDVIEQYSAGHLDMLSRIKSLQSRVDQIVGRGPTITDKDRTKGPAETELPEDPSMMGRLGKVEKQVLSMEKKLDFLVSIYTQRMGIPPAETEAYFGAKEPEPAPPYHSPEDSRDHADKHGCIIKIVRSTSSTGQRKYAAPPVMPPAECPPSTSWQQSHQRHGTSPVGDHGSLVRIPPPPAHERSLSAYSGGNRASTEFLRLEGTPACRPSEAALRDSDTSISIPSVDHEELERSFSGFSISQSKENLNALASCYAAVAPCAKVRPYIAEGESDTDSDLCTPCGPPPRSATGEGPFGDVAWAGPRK
KCNQ2 inh baseline – recorded beside KCNQ2 inh, whose call it bears; B-score; measured here: initial fluorescence intensity artifact check;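 brightness before thallium and not channel activity; 0 = typical well and far values either way flag optical interference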
Active calls of the source: *; i = inactive.

SMILES	KCNQ2 inh	KCNQ2 inh baseline
CC1CCC(NC(=O)Cn2c3c(c(-c4ccccc4Cl)cc2=O)CCC3)CC1 (stereo unspecified)	i	2.2
Cc1cc(OCC(=O)NC2CC(C)(C)NC(C)(C)C2)c2c(C)cc(=O)oc2c1	i	0.79
CCN(CCO)C(=O)CC1C(=O)NCCN1Cc1c(F)cccc1Cl (stereo unspecified)	i	1.62
C=CCNC(=O)c1c(Cl)cccc1Cl	i	0.23
CN(C)S(=O)(=O)c1ccc(NC(=O)c2c(F)cccc2Cl)cc1	i	-1.8
CSCCC(NC(=O)COc1ccccc1)C(=O)N1CCCC(C)C1 (stereo unspecified)	i	-1.26
CCc1ccc(C(=O)NNC(=O)C2CCN(c3ncnc4sc(C)c(C)c34)CC2)cc1	i	-0.92
COc1cccc(CCc2nnc(CCC(=O)N3CCN(Cc4ccccn4)CC3)o2)c1	i	-0.94
Cc1ccc(C(=O)NC(=S)Nc2ccccc2N2CCOCC2)cc1C	-6.1*	1.17*
O=C(NN1C(=O)c2cc(Br)ccc2NC1c1ccccc1Cl)c1ccncc1 (stereo unspecified)	i	1.26
CC(C)CN(C)C(=O)CC1C(=O)NCCN1C (stereo unspecified)	i	0.32
Cc1ccnc(NC(=O)CCC(=O)N(CC(=O)NCCc2ccccc2)c2ccccc2F)c1	i	0.47
COc1ccc(C(=O)Oc2ccc3c(c2)OCO3)cc1OC	i	1.33
COc1cccc(N2CCN(C(=O)c3ccc(CS(=O)c4ccc(C)cc4)o3)CC2)c1 (stereo unspecified)	i	0.08
COC(=O)CSc1ccc(-c2nc3ccc(C)cc3[nH]2)cn1	i	-2.92
COCCNc1nc(-c2cc(C(=O)Nc3ccccc3)on2)cc(C(C)C)n1	i	-1.1
C=CCOC(=O)C1=C[C@H](c2ccc3c(c2)OCO3)C[C@H](OCCCCO)O1	i	0.98
Cc1ccc(N=C2CCCN2Cc2ccccc2)c(C#N)c1	-8.98*	1.05*
O=C(CNS(=O)(=O)c1ccc(Br)s1)NC1CCCc2ccccc21 (stereo unspecified)	i	-0.11
CN1CCN(C2=C(Cl)C(=O)N(C3CCCCC3)C2=O)CC1	i	1.18
COc1cc(CC(=O)OCC(=O)N2CC(C)CC(C)C2)cc(OC)c1OC (stereo unspecified)	i	0.05
CCOC(=O)C1CCCN(C(=O)c2ccccc2Oc2ccccc2)C1 (stereo unspecified)	i	0.11
Cc1ccc(CNC(=O)c2cc3c(=O)n4ccccc4nc3n(Cc3ccco3)c2=N)cc1	i	1.8
Cc1cc(N2CCOCC2)nc2ccccc12	i	1.15
CC(Oc1ccc(F)cc1)C(=O)N(CCC1=CCCCC1)c1c(N)n(Cc2ccccc2)c(=O)[nH]c1=O (stereo unspecified)	i	-0.82
COCCN1CCN(C(=O)c2ccc3c(c2)S(=O)(=O)c2ccccc2C3=O)CC1	i	0.66
O=[N+]([O-])c1ccccc1/C=N/OCc1ccccc1	i	-0.35
COc1ccc(NC(=O)c2cccnc2C(=O)O)c(OC)c1	i	-1.92
Cc1ccc(-n2c(O)c(C=Nc3ccc4c(c3)OCO4)c3ccccc3c2=O)cc1C	i	-1.27
Cc1ccc(C)n1-c1ccc(C(=O)NN)s1	-5.68*	0.15*
COCCN(CCOC)C(=S)Nc1ccccc1Cl	i	0.12
CCCCN1C(=O)C(=O)N(CC(=O)Nc2cc(OCC)c(N3CCOCC3)cc2OCC)C1=O	i	0.67
O=C(NCCn1cccn1)c1ccc(OC2CCN(C(=O)C3CC3)CC2)cc1	i	-1.98
CCOC(=O)c1ccc(NC(=S)NCCc2ccccc2)cc1	i	-1.35
CCOC(=O)c1ccc(NS(=O)(=O)c2cc3c(cc2C)NC(=O)CO3)cc1	i	-1.34
O=C(COc1ccc(Cl)cc1)Nc1nc(-c2ccc(S(=O)(=O)N3CCOCC3)cc2)cs1	i	-1.86
O=C(CN1C(=O)c2cccc3cccc(c23)C1=O)N1CCOCC1	i	-0.24
Cc1c(N=C2N=C(NC(=O)Nc3ccc(Cl)cc3)c3ccccc32)c(=O)n(-c2ccccc2)n1C	i	-1.46
CCOC(=O)c1c(-c2ccccc2)csc1NC(=O)c1ccc(N2C(=O)CCC2=O)cc1	i	1.84
O=C(CNC(=O)c1ccco1)OCC(=O)c1ccc([N+](=O)[O-])cc1	i	0.82

Record cards (already shown). Order of values: KCNQ2 inh	KCNQ2 inh baseline
O=C(CNS(=O)(=O)c1ccc(Br)s1)NC1CCCc2ccccc21 (stereo unspecified) as listed: i	-0.11
CSCCC(NC(=O)COc1ccccc1)C(=O)N1CCCC(C)C1 (stereo unspecified) as listed: i	-1.26
COc1cccc(N2CCN(C(=O)c3ccc(CS(=O)c4ccc(C)cc4)o3)CC2)c1 (stereo unspecified) as listed: i	0.08
O=C(NN1C(=O)c2cc(Br)ccc2NC1c1ccccc1Cl)c1ccncc1 (stereo unspecified) as listed: i	1.26
CCOC(=O)c1ccc(NS(=O)(=O)c2cc3c(cc2C)NC(=O)CO3)cc1 as listed: i	-1.34

Later entries:
SMILES	KCNQ2 inh	KCNQ2 inh baseline
S=C1NC2=C(C(c3ccc(Br)cc3)N1)N1CCC2CC1 (stereo unspecified)	i	-0.23
O=C(CCSc1ccccc1)NC(=O)COC(=O)C1CCCCC1	i	3.82
O=C1c2ccccc2NC(c2cccc(O)c2)N1c1ccccc1 (stereo unspecified)	i	0.48
COc1ccc(/C=C(\C#N)C(=O)ONC2=NCCCCC2)cc1	i	0.19
C(=NCCCN1CCOCC1)c1ccc2c(c1)OCO2	i	-0.18
Cc1nc2ccc(NC(=O)c3ccc(Cl)nc3)cc2s1	i	0.82
CN(CC(=O)Nc1cccc(F)c1)C(=O)c1ccccc1CCc1ccccc1	-6.24*	0.18*
O=[N+]([O-])c1ccc(C2=NN(CCO)C(=Nc3ccc(OC(F)(F)F)cc3)SC2)cc1	i	-0.1
CNC(=S)NNC(=O)CNc1ccc(C)c(Cl)c1	i	-2.41
CCO[C@H]1OC(C(=O)N2CCN(Cc3ccc4c(c3)OCO4)CC2)=C[C@@H](C2CC2)[C@@H]1CCCO	i	-1.48
COc1cccc(C(C(=O)NC2CCCCC2)N(Cc2ccco2)C(=O)c2ccccn2)c1 (stereo unspecified)	i	-2.44
COCCn1c(N)c(N(Cc2ccccc2)C(=O)COc2ccc(F)cc2Cl)c(=O)[nH]c1=O	i	-0.05
CCOC(=O)c1cnc2c(cnn2C)c1NCCC#N	i	-0.92
COc1ccc(NC(=O)CCN2CCN(C/C=C/c3ccccc3)CC2)cc1	i	0.09
C=C(C)Cn1c(NCCOC)nc2c1c(=O)[nH]c(=O)n2C	i	1.01
COc1ccc(CN(C)C(=O)c2cccc(NS(=O)(=O)c3ccccc3)c2)c(OC)c1	i	-0.4
CC(/C=N/n1c(COc2ccccc2)n[nH]c1=S)=C\c1ccccc1	i	0.35
CN(C)c1cc(NC(=O)CN2CCOCC2)c2ccccc2n1	i	1.64
CNC(=S)Nn1cnc2ccccc21	i	-1.05
CCN(CC(=O)NCc1cccs1)C(=O)/C=C/c1ccc(Cl)c(Cl)c1	i	0.43

Pulled by compound from the entries so far:
SMILES	KCNQ2 inh	KCNQ2 inh baseline
CCN(CC(=O)NCc1cccs1)C(=O)/C=C/c1ccc(Cl)c(Cl)c1	i	0.43
C(=NCCCN1CCOCC1)c1ccc2c(c1)OCO2	i	-0.18
CN(CC(=O)Nc1cccc(F)c1)C(=O)c1ccccc1CCc1ccccc1	-6.24*	0.18*
S=C1NC2=C(C(c3ccc(Br)cc3)N1)N1CCC2CC1 (stereo unspecified)	i	-0.23

Remaining list, next part
SMILES	KCNQ2 inh	KCNQ2 inh baseline
CSc1ccccc1NC(=O)Nc1ccc(Cl)cc1	i	0.02
O=C(/C=C/c1ccccc1)CC(O)(c1ccccc1)C(F)(F)F (stereo unspecified)	i	2.26
N#Cc1cnc(SCCc2ccccc2)nc1N	i	0.04
N=C1C(c2nc3ccccc3s2)=C(O)CN1Cc1ccco1	i	1
Cc1ccc(/C=N/NC(=O)C(C)Oc2ccccc2[N+](=O)[O-])s1 (stereo unspecified)	i	0.28
O=C(NC1CCCCC1)c1cc([N+](=O)[O-])ccc1N1CCOCC1	i	-1.89
O=C(Nc1cc(=O)[nH]c2nc(-c3ccccc3)nn12)c1ccccc1Cl	i	-0.5
O=C(COc1ccccc1C(=O)Nc1ccccc1)c1ccc(Br)cc1	i	-0.11
C(/C=C/c1ccccc1)=N/N1CCN(c2ccccc2)CC1	i	-0.17
CC(C)(C)NC(=O)C(c1cccs1)N(Cc1ccco1)C(=O)c1csnn1 (stereo unspecified)	i	-1.38
CCOc1ccc(C(=O)Cn2cnc3ccccc3c2=O)cc1	i	0.22
COc1cccc(NC(=O)c2nnn(CCc3ccccc3)c2N)c1	i	-0.63
O=C(NCCSc1ccccc1)c1ccccc1Cl	i	0.44
COc1ccc(-c2noc(CN(C)Cc3ccccc3)n2)cc1	i	0.32
COc1ccc(S(=O)(=O)NCC2CCCN(C(=O)c3occc3C)C2)cc1 (stereo unspecified)	i	0.56
Nc1cccc(C(=O)OCC(=O)c2ccccc2)c1	i	1.56
COc1ccc(-n2nnnc2/C=C\Nc2ccc(C)cc2)cc1	i	0.06
CN(C)S(=O)(=O)Oc1ccc(C(=O)Nc2cccc(C(F)(F)F)c2)cc1	i	-0.54
Cc1ccccc1CN1CCC(n2nccc2NC(=O)c2ccc3c(c2)OCO3)CC1	i	-0.07
COc1ccc(NC(=O)COC(=O)C2C3CC4OC(=O)C2C4C3)cc1 (stereo unspecified)	i	0.02
COc1cc(/C=C/C(=O)OCc2cn3cc(Cl)ccc3n2)ccc1O	i	-1.63
COc1ccccc1CC(=O)c1ccc(OCc2ccccc2)cc1	i	-3.41
COc1cc2cc(CN(Cc3cccnc3)C(=O)Nc3ccccc3)c(=O)[nH]c2cc1OC	i	1.41
O=C(NC1CCCCC1)C(c1ccncc1)N(C(=O)c1csnn1)c1ccccc1 (stereo unspecified)	i	0.29
CCCCn1c(C(C)NC(=O)c2cccs2)nc2ccccc21 (stereo unspecified)	i	1.69
CCCc1[nH]nc2c1C(c1ccc(O)cc1OCC)C(C#N)=C(N)O2 (stereo unspecified)	i	-2.3
CCCS(=O)(=O)N1CCN(Cc2ccccc2OCC)CC1	i	-0.7
COCCNC(=S)NC1CC2CCCC(C1)N2Cc1ccco1 (stereo unspecified)	i	1.63
Cc1ccc(N2CCOCC2)c2c1C(=O)c1ccccc1C2=O	i	-0.99
Nc1ccc2nc[nH]c2c1	i	-0.11
COc1ccc(C(=O)NCC(=O)OCC(=O)Nc2sccc2C#N)cc1OC	i	0.33
CCN(CC)C(=O)CN1C(=O)C(=O)c2ccccc21	i	0.26
O=C(Nc1cccc(-c2csc(Nc3ccccc3)n2)c1)c1ccccc1	-6.8*	-0.94*
COc1ccc(C(=O)C2CCN(C(=O)c3ccc(OC)cc3)CC2)cc1	i	0.44
COc1ccc(/C=N/NC2=NS(=O)(=O)c3ccccc32)cc1	i	0.37
Cc1cc(C)c(NC(=O)CS(=O)CC(=O)Nc2cccnc2)c(C)c1 (stereo unspecified)	i	0.25
O=C(O)c1c2c(nc3ccccc13)/C(=C/c1ccccc1[N+](=O)[O-])CCC2	i	1.02
CC1CC(=O)NN=C1c1cccs1 (stereo unspecified)	i	0.32
Cc1ccc(-c2nc(S(=O)(=O)c3ccc(C)cc3)c(SCC(N)=O)o2)cc1	i	1.65
Cc1ccc(CSc2nc3c(c(=O)[nH]2)CCC3)cc1	i	-1.38
Cc1cc(C)n(CC(=O)c2ccc(Cl)cc2)n1	i	-0.43
CN(C)S(=O)(=O)c1cc(NC(=O)c2cc(=O)[nH]c3ccccc23)ccc1Cl	i	1.5
O=C(CSc1nc2c(sc3ccccc32)c(=O)n1-c1ccccc1)NCc1ccco1	i	-1.11
CCn1nc(C)c(CNC(=O)Nc2ccc3c(c2)OCO3)c1C	i	-1.01
Cc1cc(C)cc(OC(=O)CCN2C(=O)c3ccccc3C2=O)c1	i	-1.22
COC(=O)c1c(C)[nH]c(C(=O)CSc2ncnc3sc(-c4ccccc4)cc23)c1C	i	0.02
O=C(c1ccc(Oc2ccc([N+](=O)[O-])cc2)cc1)N1CCCCCC1	i	-1.22
COc1cc(/C=N/NC(=O)c2cccnc2)ccc1OS(=O)(=O)c1ccc(C)cc1	i	0.37
COCCN(C(=S)Nc1cc(C)cc(C)c1)C(C)c1ccco1 (stereo unspecified)	i	0.22
Cc1ccc(-c2ccc(/C=N/N=C3/NC(=O)C(CC(=O)O)S3)o2)c([N+](=O)[O-])c1 (stereo unspecified)	i	-1.28
Cc1ccc2nc(SCC(=O)N3CCCCC3)nc(=O)n2c1	i	2.4
CCC(C)(C)C1CCC2(CC1)NC(=O)N(CC(=O)N1CCN(S(=O)(=O)c3cc(C)ccc3C)CC1)C2=O (stereo unspecified)	i	2.82
CCc1ccc(-c2ccc(C(=O)O)cc2)nc1	i	-0.4
COCC(C)NC(=O)c1cc(-c2ccc(OC)c(OC)c2)on1 (stereo unspecified)	i	2.1
O=C(Cc1ccc(Cl)cc1)NCc1ccccc1Cl	i	0.23
CCOc1ccccc1-n1c(N)c(C(N)=O)sc1=S	i	-1.48
CN1CCN(c2ccc(Nc3ccnc4cc(Cl)ccc34)cc2)CC1	i	0.26
O=[N+]([O-])c1cccc(-c2n[nH]c(=S)n2-c2ccccc2)c1	i	1.73
CC(C)(C)c1ccccc1OCC(=O)Nc1ncn[nH]1	i	-0.86
COC(=O)C1=CN(Cc2ccc(OC)cc2)C=C(C(=O)OC)C1c1cccs1	i	-1.72

Source: PubChem BioAssay

The list is partial. The share of hits here may be higher or lower than overall.
